NS1 function inh = inhibitors of influenza NS1 protein function; Potency, µM (highest dose often 46.1 µM), for inactives: at the top dose activity, positive = more growth; S. cerevisiae slowed by influenza A NS1, growth recovery by OD600; 270,000 compounds, 0.4% hits; active means well fitted rising curve with a large enough effect; inconclusive means small, poorly fitted or top-dose-only effect; inactive means no such curve, though single readings can be large or run the other way; note: nearly all actives have a fitted effect of over 50% in size
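S. cerevisiae expressing influenza A NS1, grown in glucose, washed, then diluted 1:100 into pH 6.0 -URA galactose medium with 23 nl compound. Growth recovery read as OD600; NS1-free strain serves as control.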
Cruzain noTriton = inhibitors of Trypanosoma cruzi cruzain without detergent; purified cruzain, Z-FR-AMC fluorescence, no detergent; Potency, µM, for the others: max response, negative = inhibition, usual class: inhibitors; 200,000 compounds, 2.3% hits; P25779;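 note: plate controls were enzyme without inhibitor for no effect and buffer without enzyme for full effect; nearly all actives have a fitted effect of over 40% in size; top concentration of the series not given in the record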
Target sequence (P25779 123-467 limits assumed): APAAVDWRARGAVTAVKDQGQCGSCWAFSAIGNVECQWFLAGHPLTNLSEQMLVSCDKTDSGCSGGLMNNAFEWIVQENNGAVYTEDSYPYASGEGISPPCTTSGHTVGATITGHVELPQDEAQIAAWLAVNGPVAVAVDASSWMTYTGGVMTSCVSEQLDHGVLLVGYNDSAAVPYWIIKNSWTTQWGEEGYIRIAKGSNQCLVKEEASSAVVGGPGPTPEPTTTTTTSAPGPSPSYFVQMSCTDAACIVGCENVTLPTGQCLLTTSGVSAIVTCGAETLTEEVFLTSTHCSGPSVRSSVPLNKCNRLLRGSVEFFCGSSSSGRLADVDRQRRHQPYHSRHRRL
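Purified cruzain at 1.5 nM, pre-incubated 15 min with compound at room temperature in 100 mM sodium acetate pH 5.5, 5 mM DTT, 0.00005% Triton X-100. Reaction started with 2 uM Z-FR-AMC; AMC fluorescence increase over 60 s gives rate.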
SARS PLP yeast = inhibitors of SARS-CoV papain-like protease in yeast | S. cerevisiae expressing SARS-CoV PLpro, growth rescue; control for the full effect not named in the record | Potency, µM (highest dose often 32.9 µM), for inactives: at the highest dose activity, positive = growth rescue | 330,000 compounds, 0.19% hits | AID 485353; active means well fitted rising curve with a large enough effect; inconclusive means small, poorly fitted or top-dose-only effect; inactive means no such curve, though single readings can be large or run the other way; note: 0% is about no effect; nearly all actives have a fitted effect of over 55% in size; growth read by luminescence after 48 h
MARV entry inh = inhibitors of Marburg virus binding or cell entry; AID 540276; Marburg virus pseudotyped entry inhibition, cell reporter; control for the full effect not named in the record; about a third of the inactives were read at about 46 µM; 300,000 compounds, 1.8% hits; Potency, µM (series often up to 37.8 µM), without a hit: at the top dose activity change, negative = inhibition, usual class: inhibitors; active = well fitted inhibition curve with a large enough effect; inconclusive = small, poorly fitted or top-dose-only effect, or effect the other way; inactive = flat fitted curve, though single readings scatter; tested in HEK293 cells; about a fifth of its hits are not listed in these tables; note: % is set by controls: 0 for no effect and ±100 for the full control effect; luciferase read-out
StopGo reporter = lowers the luciferase signal of an FMDV 2A StopGo reporter; human cells with a luciferase reporter of 2A StopGo recoding; control for the full effect not named in the record; Potency, µM (highest dose often 57.9 µM), without a hit: at the top dose signal change, negative = less light; 410,000 compounds, 1.2% hits; active = well fitted falling curve with a large enough effect; inconclusive = small, poorly fitted or top-dose-only effect; inactive = no such curve, though single readings can be large or run the other way; tested in HEK293T cells; note: % is set by controls: 0 for no effect and ±100 for the full control effect; nearly all actives have a fitted effect of over 45% in size; luciferase light after 4 h
Cruzain Triton = blocks cruzain activity in presence of Triton detergent; Potency, µM, for inactives: max response, negative = inhibition, hits mostly inhibitors; 200,000 compounds, 0.43% hits; purified cruzain, Z-FR-AMC fluorescence, 0.01% Triton; P25779;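 note: plate controls were neutral wells for no effect and buffer without enzyme for full effect; nearly all actives have a fitted effect of over 40% in size; top concentration of the series not given in the record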
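Z-FR-AMC hydrolysis (2 uM substrate) by cruzain (1.5 nM) monitored kinetically at ex 360/em 450 nm after 15 min room-temperature compound exposure; 0.01% Triton X-100, pH 5.5, 5 mM DTT.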
RE007 growth inh = less growth of the S. pombe RE007 Vpr strain | S. pombe RE007 Vpr strain, BacTiter-Glo ATP luminescence, 24 h; control for the full effect not named in the record | 360,000 compounds, 0.21% hits | Potency, µM (series often up to 92.2 µM), for inactives: top-dose activity change, negative = less growth; active = well fitted falling curve with a large enough effect; inconclusive = small, poorly fitted or top-dose-only effect; inactive = no such curve, though single readings can be large or run the other way;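 note: % is set by controls: 0 for no effect and ±100 for the full control effect; nearly all actives have a fitted effect of over 50% in size; the assay follows cell death caused by Vpr and the record does not say whether a fall means rescue or toxicity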
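Fission yeast RE007 carrying one integrated HIV-1 vpr copy, seeded at OD 0.01 in PMG+AL medium with 23 nL pinned compound. Grown 24 h at 30 degrees; viability read by BacTiter-Glo luminescence after 5 min.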
LASV entry inh = blocks Lassa virus binding to or entry into cells | 300,000 compounds, 1.2% hits | Potency, µM (doses to about 37.9 µM), for inactives: top-dose activity change, negative = inhibition, actives largely listed as inhibitors | Lassa virus pseudotype entry inhibition, cell reporter; control for the full effect not named in the record; active means well fitted inhibition curve with a large enough effect; inconclusive means small, poorly fitted or top-dose-only effect, or effect the other way; inactive means flat fitted curve, though single readings scatter; tested in HEK293 cells; note: % is set by controls: 0 for no effect and ±100 for the full control effect; nearly all actives have a fitted effect of over 50% in size; luciferase read-out
Starred values were filed as active, the others as inactive; [ ] = another dose, or the depositor's remark. Unless noted, calls come from the whole dose curve; as a rule, active = well fitted curve in the direction sought with a large enough effect; inconclusive = small, poorly fitted or top-dose-only effect, or another doubt; inactive = no such curve, though single readings can be large; an effect the other way counts as inactive or inconclusive. Potency is the fitted concentration of half-maximal effect. Hits appear at their usual frequency, and some 4.7% of all compounds hit somewhere here.

Cc1ccc(C)c(N2CCN(C(=O)CCn3c(=O)c4cccn4c4cccnc43)CC2)c1 was read as Cruzain noTriton -7%, StopGo reporter inconclusive, Cruzain Triton -1.3% and LASV entry inh -12%[46.1 µM].
For Cc1ccc(-c2c(C(=O)N/N=C/c3ccco3)nnn2-c2nonc2N)cc1 the results were NS1 function inh 12%, SARS PLP yeast 15%, MARV entry inh 4%[46.1 µM], StopGo reporter -2%, RE007 growth inh -21% and LASV entry inh 11%[46.1 µM].
For Cn1nnc2cc(C(=O)NC3CCCCC3)ccc21 the results were NS1 function inh 0%, Cruzain noTriton -22%, SARS PLP yeast -1%, MARV entry inh 22%[46.1 µM], StopGo reporter 30%[activator], Cruzain Triton -0.7%, RE007 growth inh 16% and LASV entry inh inconclusive.
For CCOC(=O)c1c(N)n(-c2cccc(OC)c2)c2nc3ccccc3nc12 the results were Cruzain noTriton -3%, StopGo reporter -1%, Cruzain Triton 2.1% and LASV entry inh 4%[46.1 µM].
Screening COc1ccc(-c2csc(NC(=O)CCCc3cccs3)n2)cc1 returned NS1 function inh 15%, Cruzain noTriton 10µM*, SARS PLP yeast -10%, MARV entry inh 0%, StopGo reporter -23%, Cruzain Triton 0.8%, RE007 growth inh 4% and LASV entry inh 18%.
For Nc1nc(Nc2ccccc2)nc(NCCO)c1[N+](=O)[O-] the results were NS1 function inh -1%, SARS PLP yeast 0%, MARV entry inh 1%, StopGo reporter 21% and RE007 growth inh 13%.
`CC1=NN(C(=O)c2ccc(Cn3ccc([N+](=O)[O-])n3)cc2)C(O)(C(F)(F)F)C1` (stereo unspecified) gave NS1 function inh -7%, Cruzain noTriton 3%, SARS PLP yeast 5%, MARV entry inh -5%, StopGo reporter -15%, Cruzain Triton -1.2% and LASV entry inh -18%.
For CCOC(=O)c1cccc(NC(=O)c2cc(CN3CCOCC3)on2)c1 the results were Cruzain noTriton -6%, StopGo reporter -19%, Cruzain Triton 1.9% and LASV entry inh -1%[46.1 µM].
`COC(=O)c1ccc2nc(NC(=O)C3CC3)sc2c1` gave NS1 function inh -12%, SARS PLP yeast -39%, MARV entry inh -23%[46.1 µM], StopGo reporter 15%, RE007 growth inh 1% and LASV entry inh -10%.
For Cc1ccc(S(=O)(=O)NCc2c(Cl)cccc2Oc2ccccc2)cc1 the results were NS1 function inh -47%, SARS PLP yeast -9%, MARV entry inh inconclusive, StopGo reporter 0%, RE007 growth inh -10% and LASV entry inh 5%.
Screening CCOc1ccc(-n2c(=O)c3c(C)c(C)sc3n(CC(=O)C(C)(C)C)c2=O)cc1 returned Cruzain noTriton -3%, MARV entry inh 7%[46.1 µM], StopGo reporter -19%, Cruzain Triton 6.4% and LASV entry inh 12%[46.1 µM].
CCCCNC(=O)CSc1cc(=O)n(C)c2ccccc12 was read as NS1 function inh 4%, Cruzain noTriton 10%, SARS PLP yeast 3%, MARV entry inh -8%, StopGo reporter -21%, Cruzain Triton -1.1%, RE007 growth inh 6% and LASV entry inh -6%.
Cc1ccccc1Cn1c2ccccc2c2cnn(CC(=O)N3CCN(c4ccccc4)CC3)c(=O)c21 was read as NS1 function inh 12%, Cruzain noTriton inconclusive, SARS PLP yeast -1%, StopGo reporter -8%, Cruzain Triton -1.9% and RE007 growth inh 5%.
`Cc1ccccc1NC(=O)CCCN1C(=O)C2CC=CCC2C1=O` (stereo unspecified) gave NS1 function inh 11%, SARS PLP yeast inconclusive, StopGo reporter 4% and RE007 growth inh 8%.
COc1ccc(/C=N/NC(=O)CCC(=O)Nc2ccc(Br)cc2)c(OC)c1 was read as NS1 function inh -35%, SARS PLP yeast 0%, MARV entry inh 0%, StopGo reporter 9%, RE007 growth inh -6% and LASV entry inh inconclusive.
`O=S(=O)(c1ccc(Cl)cc1)N(CCCN1CCOCC1)Cc1cccs1` gave SARS PLP yeast -1%, MARV entry inh -15%, StopGo reporter -5%, RE007 growth inh 5% and LASV entry inh 16%.
`O=C(Nc1ccc(S(=O)(=O)N2CCOCC2)cc1)c1nn(-c2ccc(F)cc2)ccc1=O` gave NS1 function inh -5%, SARS PLP yeast 2%, StopGo reporter -22% and RE007 growth inh 3%.
CC(=O)c1ccc(OC(=O)CCN2c3ccccc3Sc3ccccc32)cc1 was read as NS1 function inh -37%, Cruzain noTriton -26%, SARS PLP yeast -23%, MARV entry inh 4%, StopGo reporter -20%, Cruzain Triton -0.9%, RE007 growth inh 7% and LASV entry inh 3%.
`Cc1nc(-c2ccc(F)cc2)c(CC(=O)N2CCN(S(=O)(=O)c3ccccc3Br)CC2)s1` gave NS1 function inh 13%, SARS PLP yeast -1%, MARV entry inh inconclusive, StopGo reporter -7%, RE007 growth inh -5% and LASV entry inh -15%.
CC(C)C(=O)Nc1cccc(C(=O)Nc2nccs2)c1 was read as NS1 function inh -7%, Cruzain noTriton -1%, SARS PLP yeast 0%, MARV entry inh inconclusive, StopGo reporter 24%, Cruzain Triton 2.7%, RE007 growth inh 5% and LASV entry inh -1%.
COC(=O)CSc1nc(C)c2ccc(OC)cc2n1 was read as NS1 function inh 3%, Cruzain noTriton 5%, SARS PLP yeast 0%, MARV entry inh 24%, StopGo reporter 0%, Cruzain Triton -5.2%, RE007 growth inh 2% and LASV entry inh 14%.
Screening COc1cn(CC(=O)Nc2ccc(C)cc2)c(CN2CCCCC2)cc1=O returned Cruzain noTriton 1%, StopGo reporter -8%, Cruzain Triton 3.4% and LASV entry inh 17%[46.1 µM].
Screening Cc1csc(SC(C)C(=O)Nc2ccc(Cl)cn2)n1 (stereo unspecified) returned NS1 function inh -6%, Cruzain noTriton -8%, SARS PLP yeast 7%, MARV entry inh -1%, StopGo reporter -22%, Cruzain Triton -1.3%, RE007 growth inh -9% and LASV entry inh 15%.
CCCNC(=O)CSc1nc(-c2cccs2)cc(C(F)(F)F)n1 was read as NS1 function inh 3%, Cruzain noTriton -8%, SARS PLP yeast -2%, MARV entry inh 11%, StopGo reporter -9%, Cruzain Triton -7.9%, RE007 growth inh 8% and LASV entry inh 4%.
Cc1ccc(Cn2cnc3nc4c(cc3c2=O)CCCC4)cc1 was read as Cruzain noTriton -5%, StopGo reporter 18%, Cruzain Triton -0.9% and LASV entry inh -12%[46.1 µM].
O=C(/C=C/c1ccccc1)Nc1cccc(S(=O)(=O)Nc2ccccc2F)c1 was read as NS1 function inh 0%, Cruzain noTriton -14%, SARS PLP yeast -22%, MARV entry inh inconclusive, StopGo reporter -28%, Cruzain Triton -17% and LASV entry inh inconclusive.
For Cc1ccc(-n2ncc3c(N4CCN(c5ccccc5)CC4)ncnc32)c(C)c1 the results were NS1 function inh 10%, Cruzain noTriton -26%, SARS PLP yeast 6%, MARV entry inh -16%, StopGo reporter 3.2µM*, Cruzain Triton -9.2%, RE007 growth inh 0% and LASV entry inh inconclusive.
Cc1c(NC(=O)c2cn3ccccc3n2)cccc1-n1cnnn1 was read as NS1 function inh 5%, SARS PLP yeast 0%, MARV entry inh 8%[46.1 µM], StopGo reporter -8%, RE007 growth inh 4% and LASV entry inh 12%[46.1 µM].
O=C(N/N=C/c1ccccn1)C(=O)N1CCCCCC1 was read as NS1 function inh 4%, SARS PLP yeast 1%, MARV entry inh inconclusive, StopGo reporter 19%, RE007 growth inh -7% and LASV entry inh 21%.
`O=[N+]([O-])c1ccc(-c2c(O)c3ccccc3c3nc4ccccc4nc23)cc1` gave SARS PLP yeast 3%, MARV entry inh -11%, StopGo reporter -25%, RE007 growth inh 15% and LASV entry inh -20%.
For CC1CCCC(C)N1S(=O)(=O)c1ccc(NC(=O)CNC2CCCC2)cc1 (stereo unspecified) the results were NS1 function inh 7%, SARS PLP yeast 0%, MARV entry inh inconclusive, StopGo reporter 3%, RE007 growth inh -11% and LASV entry inh -2%.
Screening O=C(O)c1ccc2c(c1)C(=O)N(c1cc(C(=O)O)ccc1Br)C2=O returned NS1 function inh 6%, Cruzain noTriton -21%, SARS PLP yeast 4%, MARV entry inh 6%, StopGo reporter -19%, Cruzain Triton 6.7%, RE007 growth inh 10% and LASV entry inh 4%.
O=C(CCN1C(=O)/C(=C/C=C/c2ccccc2)SC1=S)Nc1nccs1 was read as NS1 function inh 4%, Cruzain noTriton 3.2µM*, SARS PLP yeast -2%, MARV entry inh 9%, StopGo reporter 23%, Cruzain Triton -0.7%, RE007 growth inh 3% and LASV entry inh inconclusive.
CC(C(=O)N1CCc2ccccc21)N1CCN(Cc2ccc(Cl)cc2)CC1 (stereo unspecified) was read as NS1 function inh 11%, SARS PLP yeast 1%, MARV entry inh 5%[46.1 µM], StopGo reporter -5%, RE007 growth inh -11% and LASV entry inh 2%[46.1 µM].
`CNC(=S)N(Cc1ccc(OC)cc1)Cc1cc2cc(C)ccc2[nH]c1=O` gave NS1 function inh -2%, SARS PLP yeast 0%, MARV entry inh 20%[46.1 µM], StopGo reporter 3%, RE007 growth inh 0% and LASV entry inh 18%.
Screening Cc1ccc2c(CC(=O)NCc3cccs3)coc2c1 returned NS1 function inh 6%, Cruzain noTriton -6%, SARS PLP yeast -21%, MARV entry inh inconclusive, StopGo reporter 34%[activator], Cruzain Triton -4.5%, RE007 growth inh 26% and LASV entry inh inconclusive.
Screening CCCCn1c(N)c(N(CCOC)C(=O)c2cc(C)oc2C)c(=O)[nH]c1=O returned SARS PLP yeast -5%, MARV entry inh 19%, StopGo reporter -16%, RE007 growth inh -9% and LASV entry inh -2%.
`Cc1onc(-c2ccccc2)c1C(=O)Nc1cccc(S(=O)(=O)N2CCCCC2)c1` gave SARS PLP yeast -6%, MARV entry inh inconclusive, StopGo reporter -22%, RE007 growth inh 19% and LASV entry inh inconclusive.
For CN1CCN(Cc2cc(=O)oc3ccc(Cl)cc23)CC1 the results were NS1 function inh -9%, Cruzain noTriton -3%, SARS PLP yeast 5%, MARV entry inh 20%, StopGo reporter 2%, Cruzain Triton 0.4%, RE007 growth inh -7% and LASV entry inh -6%.
CCC(=O)N1CCc2cc(Br)cc(S(=O)(=O)CCC(=O)N3CCN(c4ccc(F)cc4)CC3)c21 was read as Cruzain noTriton 19%, MARV entry inh 24%[46.1 µM], StopGo reporter -7%, Cruzain Triton 1.2% and LASV entry inh 2%[46.1 µM].
Screening O=C(NCc1ccccn1)c1cc(-c2ccncc2)nc2ccccc12 returned SARS PLP yeast 4%, MARV entry inh 1%, StopGo reporter -19%, RE007 growth inh -5% and LASV entry inh 0%.

High-throughput results from PubChem.
